KCNQ2 inh: KCNQ2 potassium channel inhibitors, primary screen, cell-based, CHO-K1, FluxOR thallium flux, B-score (AID 2156); 20 min; hits give low values; only compounds with negative scores are shown here; some inactives read as strong as hits; 310,000 compounds, 1.1% hits; Potassium voltage-gated channel subfamily KQT member 2 (Rattus norvegicus), O88943; B-score at 10 µM;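 active = fluorescence ratio B-score at most minus 3 library SDs, with starting brightness B-score within 2 library SDs, cut at about -5.5 in these data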
Target sequence (O88943 whole entry, looked up): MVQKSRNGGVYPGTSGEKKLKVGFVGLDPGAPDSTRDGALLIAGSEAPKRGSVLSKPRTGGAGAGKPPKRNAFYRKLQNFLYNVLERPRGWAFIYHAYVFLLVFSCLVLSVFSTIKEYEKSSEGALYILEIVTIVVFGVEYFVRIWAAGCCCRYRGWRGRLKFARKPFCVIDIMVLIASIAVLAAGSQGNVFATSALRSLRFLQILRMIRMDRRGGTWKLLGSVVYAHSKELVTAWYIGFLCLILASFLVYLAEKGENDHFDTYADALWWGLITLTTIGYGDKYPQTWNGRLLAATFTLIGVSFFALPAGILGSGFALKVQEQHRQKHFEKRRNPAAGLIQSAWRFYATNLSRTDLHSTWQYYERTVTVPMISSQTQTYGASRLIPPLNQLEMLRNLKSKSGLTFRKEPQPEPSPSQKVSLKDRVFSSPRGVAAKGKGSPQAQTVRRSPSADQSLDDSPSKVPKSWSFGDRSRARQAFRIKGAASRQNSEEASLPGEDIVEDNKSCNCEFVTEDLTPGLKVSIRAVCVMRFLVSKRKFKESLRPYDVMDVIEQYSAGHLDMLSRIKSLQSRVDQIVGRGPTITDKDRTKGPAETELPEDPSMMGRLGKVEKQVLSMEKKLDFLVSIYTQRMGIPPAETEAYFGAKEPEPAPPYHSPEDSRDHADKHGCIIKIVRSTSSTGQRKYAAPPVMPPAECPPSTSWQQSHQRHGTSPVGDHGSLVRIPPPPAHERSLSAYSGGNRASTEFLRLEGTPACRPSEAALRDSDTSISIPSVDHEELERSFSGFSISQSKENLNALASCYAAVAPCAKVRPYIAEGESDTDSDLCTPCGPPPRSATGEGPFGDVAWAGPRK
KCNQ2 inh baseline: recorded beside KCNQ2 inh, whose call it bears; B-score; measured here: initial fluorescence intensity artifact check;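 brightness before thallium and not channel activity; 0 = typical well and far values either way flag optical interference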
Active calls of the source: *; i = inactive. Not all compounds are listed. The share of hits here may be higher or lower than overall.

| compound | KCNQ2 inh | KCNQ2 inh baseline |
| --- | --- | --- |
| COc1cccc(CN2CC(C(=O)NC3(c4ccccc4)CC3)CCC2=O)c1 (configuration not stated) | i | -0.42 |
| O=S(=O)(Nc1cccc(-c2cn3cccnc3n2)c1)c1ccc(-c2ccccc2)cc1 | i | 1.2 |
| CCN1CCN(C(=O)CCc2nc3ccccc3c(=O)[nH]2)CC1 | i | 0.49 |
| O=C(O)c1cnn2c1NC(c1ccc(F)cc1)CC2C(F)(F)F (configuration not stated) | i | 0.58 |
| C/C(=N\NC(=O)c1ccc(N/N=C(\C)c2ccc(O)cc2)cc1)c1ccc(O)cc1 | i | -1.6 |
| CCn1c(COc2ccc(C)cc2)nnc1SCC(=O)Nc1cc(OC)ccc1OC | i | -0.08 |
| Cc1ccccc1C(=O)NC1CC2CCCC(C1)N2Cc1ccc(Cl)cc1 (configuration not stated) | i | 1 |
| COc1ccc(C2=NOC(C(=O)NC(C)(C)C)C2)cc1 (configuration not stated) | i | -0.67 |
| COc1ccc(CN2CCN(CC(O)Cn3c4ccccc4c4ccccc43)CC2)cc1 (configuration not stated) | i | 0.72 |
| CCn1c(SCC(=O)Nc2ccc(OCc3ccccc3)cc2)nnc1-c1ccco1 | i | 0.3 |
| Nc1nc(-c2ccccc2)c(-c2ccccc2)n1N | i | 5.5 |
| Cc1cc(NC(=O)CSc2ccc3nnc(-c4ccccc4)n3n2)no1 | i | 2.1 |
| CC(=O)Nc1ccc(N/C=C/C(=O)C(C)(C)C)cc1 | i | -1.1 |
| COC(=O)c1ccccc1NC(=O)COc1ccc(S(=O)(=O)NC(C)C)cc1 | i | 0.25 |
| Cc1nc(NCc2ccc3c(c2)OCO3)c2oc3ccccc3c2n1 | i | -0.06 |
| CN(Cc1ccccc1NS(=O)(=O)c1ccc2ccccc2c1)C1CCCCC1 | i | 0.68 |
| CCOC(=O)[C@@H]1[C@H]2COc3ccccc3[C@@H]2N2C(=O)N(c3ccc(OC)cc3)C(=O)[C@]12C | i | -1.2 |
| CCN(CC)C(=S)Nc1ccc([N+](=O)[O-])cc1 | i | 0.84 |
| Cc1ccc(C(=O)N2CCOCC2)cc1S(=O)(=O)N1CCOCC1 | i | 0.9 |
| Cc1cc(C)nc(NC(=O)CSc2nn(C)c(=S)s2)n1 | i | 1.4 |
| COc1cccc(CNC(=O)CCC2CCCN(Cc3cc(Cl)ccc3O)C2)c1 (configuration not stated) | i | 0.7 |
| Cc1noc(C)c1COc1ccccc1C(=O)Nc1cccc(S(=O)(=O)N(C)C)c1 | i | -0.02 |
| C1=C(N2CCOCC2)/C(=C/c2nc3ccccc3[nH]2)CC1 | i | -0.09 |
| CC1(C)Cc2c(cnn2-c2ccc(F)cc2)C(NC(=O)CCC(F)(F)F)C1 (configuration not stated) | i | -1.5 |
| CN(C)CCN(C(=O)C1CCN(S(=O)(=O)c2cccs2)CC1)c1nc2c(F)cccc2s1 | i | -0.2 |
| C/C(N)=C(/C#N)C(=O)COC(=O)c1cccc(C)c1O | i | 0.29 |
| COc1ccc(CC(=O)N(CC2CCCO2)c2nc3ccccc3s2)cc1 (configuration not stated) | i | 0.14 |
| CCOC(=O)c1sc(NC(=O)c2ccc(C)o2)nc1C | i | -0.69 |
| CCN(CC)S(=O)(=O)c1ccc(/C=C/C(=O)OCC(=O)Nc2cccc3ccccc23)cc1 | i | 2.1 |
| N#Cc1ccccc1COC(=O)CCCC1=NS(=O)(=O)c2ccccc2N1 | i | -0.71 |

Sorted by molar mass (largest number first): 4 of the compounds above.
| compound | KCNQ2 inh | KCNQ2 inh baseline |
| --- | --- | --- |
| COc1ccc(CN2CCN(CC(O)Cn3c4ccccc4c4ccccc43)CC2)cc1 (configuration not stated) | i | 0.72 |
| COc1ccc(CC(=O)N(CC2CCCO2)c2nc3ccccc3s2)cc1 (configuration not stated) | i | 0.14 |
| CCOC(=O)c1sc(NC(=O)c2ccc(C)o2)nc1C | i | -0.69 |
| C/C(N)=C(/C#N)C(=O)COC(=O)c1cccc(C)c1O | i | 0.29 |

The listing picks up; the 6 compounds before the break are reprinted first.
| compound | KCNQ2 inh | KCNQ2 inh baseline |
| --- | --- | --- |
| CN(C)CCN(C(=O)C1CCN(S(=O)(=O)c2cccs2)CC1)c1nc2c(F)cccc2s1 | i | -0.2 |
| C/C(N)=C(/C#N)C(=O)COC(=O)c1cccc(C)c1O | i | 0.29 |
| COc1ccc(CC(=O)N(CC2CCCO2)c2nc3ccccc3s2)cc1 (configuration not stated) | i | 0.14 |
| CCOC(=O)c1sc(NC(=O)c2ccc(C)o2)nc1C | i | -0.69 |
| CCN(CC)S(=O)(=O)c1ccc(/C=C/C(=O)OCC(=O)Nc2cccc3ccccc23)cc1 | i | 2.1 |
| N#Cc1ccccc1COC(=O)CCCC1=NS(=O)(=O)c2ccccc2N1 | i | -0.71 |
| CCNC(=O)CCc1nc(-c2ccc(C(C)(C)C)cc2)no1 | i | -1.7 |
| CCCCCCNC(=O)CSc1nccn1Cc1ccccc1 | i | 1.3 |
| O=C(c1nc2ncccn2n1)N1CCc2ccccc2C1 | i | -0.04 |
| CCOc1ccc(C(=O)N(CN2CCCC2=O)c2cccc(Cl)c2)cc1 | i | -0.95 |
| CN(C)C(=O)c1ccc(NC(=O)CN2CCc3cc4c(cc3C2)OCCCO4)cc1 | i | 1.3 |
| CCCN(CCC)C(=O)CCS(=O)(=O)c1cccc2nsnc12 | i | 1.3 |
| CSc1nc(SCC(=O)NCc2ccco2)c2c3c(sc2n1)CN(C)CC3 | i | -0.1 |
| COc1ccc2c(=O)c3ccccc3oc2c1 | i | 0.68 |
| O=C(O)Cn1cc(/C=c2/sc3nc4ccccc4n3c2=O)c2ccccc21 | i | 0.67 |
| NC(=O)NC(=O)CSc1nc(-c2ccccc2)c(-c2ccccc2)n1CC1CCCO1 (configuration not stated) | i | -0.34 |
| Cc1cccc(C(=O)N/C(=C/c2ccco2)C(=O)N2CCCCCC2)c1 | i | 0.79 |
| COc1ccc(/C=C2\SC(=O)N(CC(=O)Nc3cccnc3)C2=O)cc1OC | i | -0.9 |
| Cc1ccc(OCCN(C)C(=O)c2cc(COc3ccc(F)cc3F)on2)cc1 | i | 1.7 |
| CC(=O)NC1C(c2nc3ccccc3s2)=C(c2ccccc2)C(=O)N1c1ccc(C)cc1 (configuration not stated) | i | 0.45 |
| CC(=O)c1ccc([C@@H]2C[C@]34CN(Cc5cccc(C(F)(F)F)c5)S(=O)(=O)[C@H]3C[C@H]2O4)cc1 | i | 0.6 |
| S=c1nc(-c2ccccc2Cl)[nH][nH]1 | i | -0.76 |
| Cc1nc2ccccc2n1CCN1CCOCC1 | i | 1.3 |
| CC1CC(C)CN(c2ccc(NS(=O)(=O)c3ccccc3)cc2C(=O)O)C1 (configuration not stated) | i | -0.65 |
| COC(=O)c1c(NC(=O)c2cccc(S(=O)(=O)N3CCN(C)CC3)c2)sc(C)c1C | i | -0.26 |
| Cc1c(C)c(C)c(C(=O)C2CCN(c3ccc([N+](=O)[O-])cn3)CC2)c(C)c1C | i | 1.3 |
| COc1ccc(NC(=O)CSc2nc(N3CCCCC3)nc(N3CCCCC3)n2)cc1 | i | -2.6 |
| CCOC(=O)CN1C=C(c2ccc3ccccc3n2)C(C[N+](=O)[O-])c2ccccc21 (configuration not stated) | i | 20 |
| Cc1occc1C(=O)N/N=C/C=C\c1ccccc1[N+](=O)[O-] | i | -1.2 |
| Cc1occc1C(=O)N1CCCC(N2CCN(c3cccc(C(F)(F)F)c3)CC2)C1 (configuration not stated) | i | 0.72 |
| CC12COC3(C(=O)Nc4ccc(Cl)cc4)CC1CCC32C (configuration not stated) | i | 0.76 |
| Cc1nc2n(n1)C(O)c1cc([N+](=O)[O-])ccc1S2 (configuration not stated) | i | 1.1 |
| COc1ccc(N=Cc2c(O)n(-c3cccc(C)n3)c(=O)c3ccccc23)c(OC)c1 | i | 0.34 |
| CCC(=O)N1c2ccc(S(=O)(=O)CCC(=O)N3CCN(c4ccccc4F)CC3)cc2CC1C (configuration not stated) | i | 0.23 |
| Cc1ccc(C(=O)c2oc3ccccc3c2N)cc1 | i | 0.05 |
| COc1ccc(N2CCN(C(=O)c3ccc(COc4ccc([N+](=O)[O-])cc4)o3)CC2)cc1 | i | -1.1 |
| O=C1Oc2ccccc2C(=O)/C1=C/c1ccccc1O | i | 0.57 |
| CC1=NN(c2ccccc2)C(=O)/C1=C\c1ccc(Oc2ccc([N+](=O)[O-])cc2[N+](=O)[O-])cc1 | i | -0.08 |
| CCc1nnc(NC(=O)CCC(=O)N2CCN(C3CCCCC3)CC2)s1 | i | -0.64 |
| COc1cccc(-c2nnc3sc(-c4ccccn4)nn23)c1 | i | 0.41 |
| CCCc1cc(C(N)=O)c(NC(=O)c2ccoc2C)s1 | i | 1.1 |
| COc1cc(-c2cc(N)n(S(=O)(=O)c3ccc(F)cc3)n2)cc(OC)c1OC | i | 0.71 |
| CCCCn1c(NCCO)nc2ccccc21 | i | 0.2 |
| C=CCn1nnnc1-c1cc(Cl)cc(Cl)c1 | i | 1.3 |
| O=C(O)CC(=O)Nc1ccccc1 | i | -1.5 |
| COC(=O)C1=NN(c2ccc(C)cc2)C2(S1)SC(C(C)=O)=C(C)N2c1ccccc1 (configuration not stated) | i | -0.2 |
| Nc1c(C(=O)O)cnn1-c1ccc([N+](=O)[O-])cc1 | i | 1.6 |
| O=c1[nH]cnc2c1nnn2Cc1ccccc1 | i | 0.13 |
| CS(=O)(=O)NCc1ccc(C(=O)NCCOc2ccccc2)cc1 | i | 0.02 |
| CC1CC(C)(C)NC(=S)N1CC(=O)N1CCN(Cc2ccc3c(c2)OCO3)CC1 (configuration not stated) | i | 0.24 |
| O=C(Nc1ccc(N2CCCCC2)c(Cl)c1)c1ccc2c(c1)OCCO2 | i | 0.84 |
| O=C(NC1CCCCC1)C(c1ccc(Cl)cc1)N(C(=O)c1ccccn1)c1cccnc1 (configuration not stated) | i | 1.3 |
| O=C(NC12CC3CC(CC(C3)C1)C2)c1cccc([N+](=O)[O-])c1 | i | -0.61 |
| CCOc1ccc(/C=C2\C(=O)c3ccccc3OC2c2ccccc2)cc1 (configuration not stated) | -6.2* | -0.02* |
| COc1ccc(-n2ccnc2SCC(=O)NO)cc1 | i | 4.5 |
| CCOC(=O)N1CCC(N(CCN(C)C)C(=S)Nc2cccc(Cl)c2)CC1 | i | -0.33 |
| CCOc1cc(/C=C2/NC(=O)N(CC(=O)Nc3cccc(C)c3)C2=O)ccc1OC | i | 6.7 |
| CN(CC(=O)Nc1ccccc1C(F)(F)F)C(=O)CSCc1ccc(Cl)c(Cl)c1 | i | 0.98 |
| CC(C)(C)c1ccc(OCc2ccc(C(=O)NN)o2)cc1 | i | 0.39 |
| COc1ccccc1N1CCN(C(=O)COc2cc(C)ccc2C)CC1 | i | -0.29 |
| Brc1ccc(N=C(c2ccccc2)c2ccncc2)cc1 | i | 0.59 |
| COc1ccc2nc(NCCCNC(=O)c3cc(OC)c(OC)c(OC)c3)c(C#N)cc2c1 | i | 7 |
| CCC(C)NC(=O)Cn1cc(S(=O)(=O)N2CCN(c3ccccc3F)CC2)c2ccccc2c1=O (configuration not stated) | i | 0.29 |
| COc1cccc(/C=N\NS(=O)(=O)c2ccccc2)c1OC | i | -0.15 |
| C/C(CC1CC2=C(CC1(C)C)C(C)(C)CCC2)=N\NC(N)=S (configuration not stated) | i | -1.2 |
| O=C(O)CCC(=O)NCc1cn(-c2ccccc2)nc1-c1cccc(Br)c1 | i | 0.9 |

The listing continues:
| compound | KCNQ2 inh | KCNQ2 inh baseline |
| --- | --- | --- |
| CCOC(=O)c1cc(-c2ccncc2)nc2c1c(C)nn2-c1ccccn1 | i | -2.3 |
| COc1ccccc1CN1CCC(CNS(=O)(=O)c2cc(-c3onc(C)c3C)ccc2OC)CC1 | i | 2.8 |
| CCOC(=O)c1sc(NC(=O)C2=COCCO2)c(C#N)c1C | i | -1.9 |
| COc1cc(/C=C2/C(=N)N3C=CSC3=NC2=O)ccc1OCCCOc1c(C)cccc1C | i | -0.56 |
| COc1cc(/C=N/NC(=O)c2csc3c2CCCC3)ccc1OCCN1CCOCC1 | i | 0.56 |
| O=C(C1=C[C@H](c2ccccc2)C[C@H](OCCCCO)O1)N1CCOCC1 | i | 0.16 |
| CC12CCC(C(=O)NCc3ccco3)(OC1=O)C2(C)C (configuration not stated) | i | 0.7 |
| COC(=O)c1ccc(/C=C(\C#N)C(=O)NC(C)c2ccccc2)cc1 (configuration not stated) | i | 0.46 |
| Cc1ccc(C)c(-c2cc(C(=O)NC3CC3)c3ccccc3n2)c1 | i | 0.95 |
| CCCCc1ccc(N2C(=NC(=O)C3CCCO3)SC3CS(=O)(=O)CC32)cc1 (configuration not stated) | i | -0.35 |
| COc1ccc(-c2cc(C(F)(F)F)n3nc(C(=O)NCc4ccco4)cc3n2)cc1OC | -5.6* | -0.58* |
| Cc1nc2cc(C)c(C)cc2s1 | i | -1.4 |
| O=C(c1ccccc1)c1c[nH]c2ccccc12 | i | -1.8 |
| COc1ccccc1NC(=O)COC(=O)c1c[nH]c(=O)[nH]c1=O | i | 0.3 |
| CCCn1cnc2cc(NCc3cccc(OC)c3O)ccc21 | i | 0.04 |
| O=C(NNC(=O)c1cccc2ccccc12)c1ccc2c(c1)OCO2 | i | 10 |
| COc1cccc(CN2CCN(C(=O)c3cccs3)CC2)c1OC | i | 1.3 |
| CCOC(=O)C1=C(C)OC(N)=C(C(=O)OCC)C1c1ccncc1 (configuration not stated) | i | 1.2 |
| O=C(CN1CCCCC1)N1CCN(C(=O)CN2CCCCC2)CC1 | i | 1.4 |
| COC(=O)c1ccc(Cl)c(NC(=O)Cc2ccccc2[N+](=O)[O-])c1 | i | 1.8 |
| O=C(CCc1ccccc1)OCC(=O)c1ccc([N+](=O)[O-])cc1 | i | -1.6 |
| COc1ccc(C(CNC(=O)C(Cc2ccccc2)NC(N)=O)N(C)C)cc1 (configuration not stated) | i | -2 |

Compound activity deposited in PubChem BioAssay by Johns Hopkins Ion Channel Center.
